# Assay outcomes from PubChem BioAssay.
# Calb biofilm kill = mixtures killing C. albicans biofilm; C. albicans biofilm persisters + clotrimazole, fluorescence viability; primary screen in compound mixtures of four per well; inhibition, % at 7.6 µM; 120,000 compounds, 0.02% hits; AID 1242;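 active = inhibition above 30.3% in the primary screen of four-compound pools, then above 30% when the compound was retested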;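 note: compounds exposed to preformed 24 h biofilms for 48 h; the number belongs to the whole pool; some results filed as inactive read as strong as hits; inactives centre near 12; 0% = biofilm with clotrimazole alone and 100% = kill control; retested singly at about 60 µM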
#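 System: C. albicans CAF4-2 wild-type biofilms; Medium: RPMI/MOPS medium, pH 7.0; Reagent: Clotrimazole, 50 µg/mL; Times: biofilm formation 24 h, compound exposure 48 h, 37 °C; Detection: 2-h Alamar Blue fluorescence, 535/590 nm excitation/emission; Evaluation: percent inhibition of biofilm viability.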
# Starred values were filed as active, the others as inactive. Only part of the results is shown, so the mix of outcomes need not match the whole.
SMILES,Calb biofilm kill
CCn1c(=O)c(C(=O)Nc2ccsc2C(=O)OC)c(O)c2ccccc21,17.0
COc1ccc(/C=C/C(=O)Nc2cccc(C(C)=O)c2)cc1,13.3
CC(=O)NC(Cc1cccc(C)c1)C(=O)NC1CCN(c2ncccc2[N+](=O)[O-])CC1 (stereo not drawn),17.4
O=C(CN1C(=O)c2cccc3cccc1c23)Nc1ccccc1,10.2
CCCn1c(C)cc(/C=C(\C#N)C(=O)OCC(=O)Nc2cc(OC)c(OC)c(OC)c2)c1C,10.2
O=C(NCc1ccccc1)c1ccc(CSc2ccccc2)o1,15.7
O=C(CCCc1nc2ccccc2s1)NNC(=O)CCN1CCN(Cc2ccccc2)CC1,8.5
Cc1cccc(OCCN2C(=O)c3ccccc3C2=O)c1,6.2
O=C(OCc1nc2ccc(Cl)cc2n1CCO)c1ccccc1,-13.3
O=C(CC(=O)c1ccccc1)Nc1cccnc1,3.8
CCn1ccnc1CNC(=O)CC1C(=O)NCCN1Cc1ccccc1F (stereo not drawn),36.8
COC(=O)c1sc(N)c(C(=O)OC)c1COC(=O)CNS(=O)(=O)c1ccc(C)c(C)c1,8.3
O=C(O)CCC(=O)Nc1ccc(N=Nc2ccccc2)cc1,0.0
CC(=O)N1N=C(c2c(-c3ccccc3)c3cc(C)ccc3[nH]c2=O)CC1c1ccco1 (stereo not drawn),2.5
CCc1ccc(C(C)NC(=O)Cn2cnc3c(=O)n(C)c(=O)n(C)c32)cc1 (stereo not drawn),10.2

# Three compounds drawn at random from those above, as already listed:
SMILES,Calb biofilm kill
CCn1ccnc1CNC(=O)CC1C(=O)NCCN1Cc1ccccc1F (stereo not drawn),36.8
O=C(OCc1nc2ccc(Cl)cc2n1CCO)c1ccccc1,-13.3
CC(=O)NC(Cc1cccc(C)c1)C(=O)NC1CCN(c2ncccc2[N+](=O)[O-])CC1 (stereo not drawn),17.4

# Later entries:
SMILES,Calb biofilm kill
O=c1oc2ccc(Cl)cc2nc1/C=C(\O)c1ccco1,24.0
CN(C)CCOC(c1ccccc1)c1ccccc1,12.9
O=C(COC(=O)CSc1ccc2ccccc2c1)NC1CCCC1,10.0
COc1ccc(S(=O)(=O)NNC(=O)C(=O)NNc2ccccn2)cc1,18.4
Cc1cccc(CSc2nnc3c(n2)[nH]c2ccccc23)c1,13.6
OCCNCc1cccc(OCc2ccccc2Cl)c1,13.5
Cc1cccc(Cn2nc(C)cc2NC(=O)Cn2cc([N+](=O)[O-])cn2)c1,22.3
Cc1ccc(S(=O)(=O)NNC(=S)Nc2ccc(Cl)cc2)cc1,16.2
Cc1cc(/C=C2/SC(=S)N(c3ccc([N+](=O)[O-])cc3)C2=O)c(C)n1-c1cccnc1,6.7
COc1ccc(NC(=O)C(C/C=C(/C)Cl)C(C)=O)cc1 (stereo not drawn),13.7
CCOC(=O)/C(=N\O)C1=NC(C)(C)Cc2ccccc21,11.5
O=C(c1cnc(Cl)c(Cl)c1)N1CCC(Cc2ccccc2)CC1,7.9
Nc1ccc(Nc2ccc([N+](=O)[O-])cc2[N+](=O)[O-])cc1,13.7
C/C(=N\N1CCN(c2ccc(Cl)cc2)CC1)c1cccc([N+](=O)[O-])c1,12.3
CN(C)c1ccc(C(=S)N2CCN(c3ccc([N+](=O)[O-])cc3)CC2)cc1,6.9
CCCCOc1ccc(C(C)NC(=O)CCS(=O)(=O)Cc2ccc(Cl)cc2)cc1 (stereo not drawn),21.7
O=C(CCCc1nc2ccccc2s1)N1CCN(c2ccccc2)CC1,6.5
COc1cccc(/C=N/NC(=O)c2ccoc2C)c1O,27.7
C/C(=N\NC(=O)CO/N=C(\C)c1cccs1)c1ccc(N)cc1,28.7
Cc1c(Cl)cccc1NC(=O)N1CCCN(c2nc(-c3ccccc3)ns2)CC1,27.7
CCCCCC(C)NC(=O)c1ccoc1C (stereo not drawn),12.5
FC(F)(F)c1cccc(OCCN2CCN(Cc3ccccc3)CC2)c1,18.4
CCCN(CCC)C(=O)Cn1c(=O)c2sccc2n2c(=S)sc(-c3ccccc3)c12,18.1
NC(=O)[C@@H]1CCCNc2c(I)cc([N+](=O)[O-])cc2C(=O)N[C@@H](CO)C(=O)N[C@@H](Cc2ccc(O)cc2)C(=O)N1,9.1
CCOC(=O)c1c(NC(=O)CSc2ccccc2C(=O)O)sc(C)c1C,13.6
Cc1cc(C)c2c(CC(=O)NN(C)C)coc2c1,15.8
COc1ccc(Cc2c(C)nc(N)nc2Cl)cc1,11.1
Cc1ccc(-c2cc(-c3ccco3)c(C#N)c(=O)[nH]2)cc1,26.5
CCC(NS(=O)(=O)c1cnn(CC)c1)c1ccccc1 (stereo not drawn),-3.3
Cc1noc(/C=C/c2nn(C)cc2Cl)c1[N+](=O)[O-],16.8
CC(C)c1ccc(NC(=O)CNCC(c2ccccc2)N(C)C)cc1 (stereo not drawn),17.3
O=S1(=O)N=C(Oc2cccc3ccccc23)c2ccccc21,18.8
CCCN(Cc1cc2ccccc2[nH]c1=O)C(=O)c1cccc([N+](=O)[O-])c1,14.4
CC1(C)CC(=NNC(=O)c2n[nH]c3c2CCC3)CC(C)(C)N1,13.7
Cc1ccc(C(=O)NCC(=O)OCC(=O)Nc2ccccc2C#N)s1,12.2
O=C(N/N=C\c1ccc(O)c([N+](=O)[O-])c1)C1COc2ccccc2O1 (stereo not drawn),5.5
CCS(=O)(=O)N1Cc2ccccc2CC1C(=O)Nc1ccccc1OC (stereo not drawn),15.6
COC(=O)Nc1ccc(OCC(=O)N2CCOCC2)cc1,12.3
COc1cccc(CN(Cc2ccccc2F)S(=O)(=O)c2ccc(S(=O)(=O)NCc3ccccc3)cc2)c1,7.2
CCc1nnc(NS(=O)(=O)c2ccc(NC(=S)NC(=O)/C=C/c3ccccc3)cc2)s1,2.1
COC(=O)c1cccc(-c2ccc(C(c3c(C)[nH][nH]c3=O)c3c(C)[nH][nH]c3=O)o2)c1,10.4
O=C1C(Cc2cccc([N+](=O)[O-])c2)S/C(=N/N=C/c2ccco2)N1c1ccccc1 (stereo not drawn),8.1
COc1ccc(-n2cnc3cc(C(=O)NC4CCCC4)ccc32)cc1,10.1
COc1cccc(CNC(=O)c2n[nH]c3ccccc23)c1,10.0
Cc1ccsc1C(=O)N1CCCC(CCC(=O)NCc2ccc(F)c(F)c2)C1 (stereo not drawn),3.5
CCCCn1c(O)c(N=NC(=O)c2ccncc2)c2cc(Br)ccc21,19.0
CCOc1ccc(CCNC(=O)c2[nH]c(C)c(C(C)=O)c2C)cc1OCC,5.5
Cc1cccc(Nc2nnc(SC/C(O)=C(\C#N)c3nc4ccccc4[nH]3)s2)c1C,13.6
CN(C)c1ccc2nsnc2c1[N+](=O)[O-],16.5
CC1=CN2C(=N)/C(=C/c3ccc(C)o3)C(=O)N=C2S1,10.1
CCCCOC(=O)Nc1ccc(S(=O)(=O)Nc2nccs2)cc1,21.0
COc1ccc(C/C(C)=N/NC(=O)c2ccncc2)cc1,8.1
COc1ccc(S(=O)(=O)NCC2CCCN(C(=O)C=C(C)C)C2)cc1 (stereo not drawn),-0.6
C[C@H]1C=C(C(=O)NCc2nc3ccccc3[nH]2)O[C@@H](OCc2ccc(CO)cc2)C1,16.8
O=C(CSc1nc(C2CC2)nc2ccccc12)Nc1ccccc1N1CCOCC1,20.9
CN(C)c1ccc(/C=N/NC(=O)c2cc(=O)[nH]c3ccccc23)cc1,9.7
CC1(/[N+]([O-])=C/c2ccc(F)cc2)CCCCC1=O (stereo not drawn),24.4
CCN(CC)CCCNC(=O)CSc1nc(C)cc(C)n1,1.7
CCOC(=O)c1c(CC(C)C)csc1N,13.3
O=[N+]([O-])c1cc(C(F)(F)F)cc([N+](=O)[O-])c1NCc1cccnc1,9.3

# Reformatted as tab-separated lines: entries from further up.
mol	Calb biofilm kill
C[C@H]1C=C(C(=O)NCc2nc3ccccc3[nH]2)O[C@@H](OCc2ccc(CO)cc2)C1	16.8
O=C(CSc1nc(C2CC2)nc2ccccc12)Nc1ccccc1N1CCOCC1	20.9
CN(C)c1ccc(/C=N/NC(=O)c2cc(=O)[nH]c3ccccc23)cc1	9.7
CC1(/[N+]([O-])=C/c2ccc(F)cc2)CCCCC1=O (stereo not drawn)	24.4
CCN(CC)CCCNC(=O)CSc1nc(C)cc(C)n1	1.7

# Returning to the listing; the four compounds before the break are reprinted first.
SMILES,Calb biofilm kill
CC1(/[N+]([O-])=C/c2ccc(F)cc2)CCCCC1=O (stereo not drawn),24.4
CCN(CC)CCCNC(=O)CSc1nc(C)cc(C)n1,1.7
CCOC(=O)c1c(CC(C)C)csc1N,13.3
O=[N+]([O-])c1cc(C(F)(F)F)cc([N+](=O)[O-])c1NCc1cccnc1,9.3
CN1CCC(OC(=O)c2ccccc2Cl)CC1,21.5
CNc1nc(C)nc(N/N=C/c2ccccc2)n1,16.5
COc1cccc(CN2CCNC(=O)C2CC(=O)NCCc2ccccn2)c1 (stereo not drawn),12.7
O/C(=C\c1ccc2ccccc2n1)c1ccc(O)cc1O,-2.5
O=c1c(-c2nn[nH]n2)coc2ccc(Cl)cc12,8.4
CCOc1ccc2cc(C(=O)c3ccccc3)c(=O)oc2c1,11.6
COc1ccc2ccccc2c1/C=N/NC(=S)NCCN1CCOCC1,-8.5
N#CC1(NC(=O)CN2CCN(S(=O)(=O)c3ccccc3F)CC2)CCCC1,17.9
CNC(=O)NC(=O)COc1c(F)c(F)cc(F)c1F,15.8
CCn1c(SCC(=O)Nc2c(C#N)cnn2-c2ccccc2)nnc1-c1cccs1,15.4
Cc1cccc(N2CCN(C(=O)CCS(=O)(=O)c3ccc(Br)cc3)CC2C)c1 (stereo not drawn),16.0
Cc1ccc(OCCSc2nc(N)cc(N)n2)cc1,-5.9
COCCNC(=O)c1onc(CSc2ccncc2)c1C(=O)NCCOC,8.7
Cc1ccccc1C(=O)NC(C(=O)Nc1nc2c(s1)CCCC2)C(C)C (stereo not drawn),21.3
O=C(N1CCN(c2ccccn2)CC1)C(Cl)(Cl)Cl,14.9
Nc1c(Cl)ncnc1N/N=C/c1ccncc1,18.4
COC(=O)c1ccc(N2CCCCC2)c(N)c1,10.9
CC1CC(C)CN(C(=O)c2cccc3c2-c2ccccc2C3=O)C1 (stereo not drawn),16.3
Cc1cc(NC(=O)CSCc2nc(-c3cccc(Cl)c3)oc2C)no1,16.0
C=CCn1c(=NC(=O)c2cccc(N3C(=O)CCC3=O)c2)sc2cccc(OC)c21,27.2
O=C(Nc1cccc2ccccc12)N1CCc2ccccc2C1,14.3
O=C(NC(=S)Nc1ccc(S(=O)(=O)N2CCCC2)cc1)C1CC1,6.5
CCN(CC)S(=O)(=O)c1ccc(C)c(NC(=S)N2CCN(C/C=C/c3ccccc3)CC2)c1,7.3
Cc1cc(=O)[nH]c(N/N=C/c2cccc([N+](=O)[O-])c2)n1,13.3
CCN(CC)c1ccc(/C=C2/C(=O)ON=C2C)cc1,5.8
COc1ccc(CCN2CC(C(=O)NC3CCCCC3)CC2=O)cc1OC (stereo not drawn),7.8
COc1cc2c(C#N)c(N3CCCC3)nc(N)c2c(N)n1,9.7
CCONC(=NC)c1nonc1N,7.3
C/C(CCC1CC(C)(C)OC1=O)=N\NC(N)=S (stereo not drawn),20.3
CC1C(C#N)=C(SCC(N)=O)NC2=C1C(=O)CC(C)(C)C2 (stereo not drawn),8.5
O=C(Cn1nc(-c2cccc(Cl)c2)ccc1=O)Nc1ccccc1Br,-5.8
C/C(CCN1CCc2nc(-c3ccccc3)c(-c3ccccc3)cc2C1)=N\O[C@@H](C)c1cn([C@H](CO)Cc2ccccc2)nn1,8.3
CC(C)(C)c1ccc(OCCCNCc2ccccc2)cc1,19.3
CC(C)(C)NC(=O)NC(=O)CSc1ncn[nH]1,27.8
COc1ccc(CNC(=O)c2ccc(C)o2)cc1,11.0
C=CCOC(=O)/C(=C\c1ccccc1)NC(=O)c1ccc(C)cc1,9.8
Cc1cc(C)nc(SCC(=O)n2c3c(c4ccccc42)CCCC3)n1,15.9
CC(C)c1cc(-c2cc(-c3ccc(Cl)cc3)on2)nc(NCC2CC2)n1,12.5
COc1ccc2c(c1)c(C(C)=O)c(C)n2C,29.4
COc1cccc(=O)c2c(C)n(-c3ccc(C(=O)O)cc3)c(C)c12,8.8
Cc1ccc(-c2csc(NNC(=O)c3ccccc3)n2)cc1,8.8
COC(=O)COc1ccc(C)cc1-n1nc2ccccc2n1,23.1
O=C(CN1C(=O)NC2NC(=O)NC21)N/N=C/c1ccccc1O (stereo not drawn),5.1
Cc1ccc(N(C(=O)c2csnn2)C(C(=O)NC(C)(C)C)c2cccnc2)cc1C (stereo not drawn),11.2
Cc1ccc(CNC(=O)CSc2ccc(-c3cccs3)nn2)cc1,17.1
COc1ccc(/C(N)=N/OC(=O)c2ccc(OC)c([N+](=O)[O-])c2)cc1OC,13.9
COc1ccccc1-n1c(SCC(=O)NC2CCS(=O)(=O)C2)nc2cc([N+](=O)[O-])ccc21 (stereo not drawn),4.1
COc1ccc(-n2cc(-c3ccccc3)c3c(NCCCN4CCOCC4)ncnc32)cc1,23.0
N#Cc1ccc(NC(=O)COC(=O)CSc2nnc(-c3ccc(Cl)cc3)o2)cc1,6.4
Cc1ccccc1OCc1nc2c3c(ncn2n1)-c1ccccc1CC31CCCC1,26.9
O=[N+]([O-])c1cccc2c(N3CCCC3)ccnc12,-9.7
N#Cc1ccc(CO/N=C/c2ccccc2)cc1,15.3
CCOC(=O)CCn1cc(F)c(=O)[nH]c1=O,17.1
COc1ccc(/C=C(/CC(=O)NCc2ccc(Cl)cc2)c2nc3ccccc3s2)cc1,12.1
COc1ccccc1CN1C[C@@H]2C[C@@H](c3cccc(C)n3)N3CCC[C@@]23C1=O,24.4
CCOc1ccccc1NC(=O)C(OC(=O)c1ccccc1)c1ccccc1 (stereo not drawn),5.6
O=C(NCCc1ccccc1)C1CCC(Cn2c(=O)c3ccccc3n(Cc3cccnc3)c2=O)CC1 (stereo not drawn),14.1
COc1ccc(/C=N/NC(=O)CN(C)S(=O)(=O)c2ccc(NC(C)=O)cc2)cc1,8.4
